Source: PubChem BioAssay
gsp antag: antagonists of gsp mutant (McCune-Albright syndrome); gsp-mutant cells, cAMP HTRF, 30 min; control for the full effect not named in the record; Potency, µM (series often up to 76.9 µM), for inactives: at the top dose activity change, negative = inhibition, usual class: inhibitors; hit rate 0.4% among 340,000; AID 624288; active = falling curve of any shape with a large fitted effect; inconclusive = falling curve, mostly with a smaller effect; inactive = flat or rising curve; cell line not stated here;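 also: intracellular cAMP measured with PDE inhibitor Ro 20-1724 present during compound exposure; potency is read from the fitted curve at half-maximal effect; % is scaled to controls: 0 for no effect and ±100 for the full control effect; nearly all actives have a fitted effect of over 65% in size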
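Cells in G418 medium, seeded 16-24 h, 37C; buffer exchange to DPBS + 1 mM CaCl2, 0.5 mM MgCl2, 0.05% BSA; cpds in DMSO + […] (300 uM stock), 30 min 37C; HTRF cAMP detection.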
D2 PAM: potentiates the human D2 dopamine receptor allosterically; P14416; DiscoveRx D2 beta-arrestin cells, luminescence, 90 min; 100% = 57 uM dopamine signal; potentiation, % (test concentration not listed); hit rate 0.23% among 360,000; AID 624464; active = potentiation of 50% or more; inconclusive = 30% to 50%; inactive = 30% or less;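 also: compound concentration not given in the record; tested on top of an EC20 dose of dopamine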
Target sequence (P14416 whole entry, looked up): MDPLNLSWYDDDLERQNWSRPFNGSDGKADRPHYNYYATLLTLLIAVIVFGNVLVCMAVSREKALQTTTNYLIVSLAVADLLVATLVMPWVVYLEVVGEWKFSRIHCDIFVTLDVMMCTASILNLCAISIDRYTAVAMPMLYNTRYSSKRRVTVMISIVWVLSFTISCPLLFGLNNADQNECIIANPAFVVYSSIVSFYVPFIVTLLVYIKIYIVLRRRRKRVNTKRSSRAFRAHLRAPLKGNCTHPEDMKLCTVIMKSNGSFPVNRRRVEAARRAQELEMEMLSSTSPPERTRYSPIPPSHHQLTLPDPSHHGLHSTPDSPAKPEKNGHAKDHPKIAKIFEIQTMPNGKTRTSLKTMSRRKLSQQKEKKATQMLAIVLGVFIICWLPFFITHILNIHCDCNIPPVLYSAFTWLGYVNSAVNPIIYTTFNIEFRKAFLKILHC
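PathHunter beta-arrestin assay in DiscoveRx D2 cells. Compounds were added with an EC20 of dopamine (50 nM final) for 90 min at 37 deg C. Luminescence was read 1 h after detection reagent, with 57 uM dopamine as the EC100 control.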
Sfp inh: blocks B. subtilis Sfp PPTase activity; Q9F4F7; hit rate 3.5% among 310,000; AID 1490; Potency, µM, inactives show max response, negative = inhibition, usual class: inhibitors; Biochemical Sfp PPTase activity, qHTS; active = well fitted inhibition curve with a large enough effect; inconclusive = small, poorly fitted or top-dose-only effect, or another doubt; inactive = no such curve, though single readings can be large or run the other way;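 also: the enzyme is Sfp with the accession as filed and its product quenches rhodamine fluorescence; potency is read from the fitted curve at half-maximal effect; 0% = enzyme reaction without inhibitor and -100% = no enzyme wells; top concentration of the series not given in the record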
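Compounds were incubated with enzyme (final 15 nM) for 15 min at room temperature before substrate addition started the reaction. Fluorescence at 525 nm excitation, 598 nm emission was recorded immediately and after 30 minutes.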
TRPV1 PAM: enhances activation of the human vanilloid receptor TRPV1; Q8NER1; TRPV1-expressing cells, Fluo-8 calcium influx, capsaicin EC20 potentiation; host cell line not named in the record; control for the full effect not named in the record; potentiation, % at 8.33 µM; hit rate 0.02% among 320,000; AID 540277; active means potentiation above 80%; inconclusive means 30% to 80%; inactive means below 30%; also: 0% is about no effect
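Fluo-8 calcium influx in TRPV1-expressing cells, kinetic read (ex 480/em 520 nm). Compound added and read 3 min for agonist activity, followed by capsaicin at EC20 final and 2 min further read for enhancement.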
Menin MLL FP FL: inhibitors of human menin-MLL interaction, wild-type MLL peptide; Fluorescence polarization, fluorescein-MLL peptide displacement from menin; FP activity change, % at 61.4 µM; 290,000 tested, under 10 active; inconclusive = falling polarisation curve, or a change in total fluorescence; inactive = total fluorescence flat and polarisation flat or rising; no compound was filed as active; the % refers to the polarisation; negative = inhibition;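 also: % of control where 0% means no effect; inhibitors lower the polarisation; unlabelled MLL peptide was the positive control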
gsp agonist: activates gsp, the McCune-Albright syndrome mutation; gsp mutant cells, cAMP HTRF, 30 min; control for the full effect not named in the record; Potency, µM (series often up to 76.9 µM), inactives show top-dose activation (cAMP increase), usual class: activators; hit rate 0.13% among 340,000; active = well fitted activation curve with a large enough effect; inconclusive = small, poorly fitted or top-dose-only effect, or another doubt; inactive = no such curve, though single readings can be large or run the other way; cell line not stated here;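 also: phosphodiesterase inhibitor Ro 20-1724 added with compounds to block cAMP breakdown; potency is read from the fitted curve at half-maximal effect; nearly all actives have a fitted effect of over 60% in size; about a fifth of the inactives were tested at one dose only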
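Cells in DMEM/10% FBS with G418 were pretreated with compounds in DMSO plus […] (300 uM stock) for 30 min at 37C. cAMP was measured by HTRF (cAMP-d2 plus anti-cAMP antibody-K) after 30 min at room temperature.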
ClpP mod: qHTS Assay for Activators of ClpP | purified B. subtilis ClpP, FRET peptide cleavage, 20 min | Potency, µM (doses to about 57.5 µM), without a hit: top-dose activity change, negative = active | hit rate 1.9% among 340,000; active = well fitted falling curve with a large enough effect; inconclusive = small, poorly fitted or top-dose-only effect; inactive = no such curve, though single readings can be large or run the other way; also: potency is read from the fitted curve at half-maximal effect; the source files actives as falling curves though it sought activators and does not explain the sign; nearly all actives have a fitted effect of over 65% in size; many hits overshoot -100%
Target sequence (P80244 whole entry, looked up): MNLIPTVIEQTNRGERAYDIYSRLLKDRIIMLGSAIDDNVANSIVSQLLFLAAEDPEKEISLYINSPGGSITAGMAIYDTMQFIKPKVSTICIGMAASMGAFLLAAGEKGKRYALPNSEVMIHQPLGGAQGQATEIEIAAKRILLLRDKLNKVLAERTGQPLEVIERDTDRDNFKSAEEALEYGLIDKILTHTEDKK
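ClpP 10 microg/mL final, pH 8 Tris/KCl buffer with BSA, glycerol, Tween-20; compound pinned in; FRET-FV substrate; RT 20 min; Ex320/Em430; ΔFRET vs ADEP 5.8 microM, DMSO, no enzyme.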
Numbers without * were called inactive; ? = inconclusive; / = no result given; [ ] = another dose, or the depositor's remark.

SMILES	gsp antag	D2 PAM	Sfp inh	TRPV1 PAM	Menin MLL FP FL	gsp agonist	ClpP mod
CC(=O)c1c(C)[nH]c(C(=O)OCC(=O)NCc2ccc(Cl)cc2)c1C	-15%	-2	/	2	/	-59%[inhibitor]	1.7%
NC(=O)CSc1nc2cc([N+](=O)[O-])ccc2n1-c1cccc(C(F)(F)F)c1	3%	1	-9%	-2	0.0	-34%[inhibitor]	-3.1%
Cc1ccccc1NC(=O)c1sc2nc[nH]c(=O)c2c1C	-7%	-13	-5%	10	3.6	4%	-7.1%
CSc1ccc(CN(C)C(=O)C(Cc2ccccc2)NC(=O)c2ccccc2)cc1 (stereo unspecified)	-8%	2	19%	-20	/	12%	-11%
N#Cc1c(Cl)cccc1N1CCCC1	1%	-9	9%	-3	-1.6	-29%	-13%
O=C(O)CSc1nnc(-c2ccccc2O)n1Cc1ccccc1	-5%	-1	9%	-5	1.8	-7%	-1.6%
O=C(CC1(O)C(=O)Nc2ccccc21)c1ccccc1 (stereo unspecified)	2%	-7	18%	8	4.6	-69%[inhibitor]	0.8%
COc1ccc(-c2noc(CCC(=O)NC3CCN(Cc4ccccc4)CC3)n2)cc1	4%	-31	9%	-11	1.9	5%	2.3%
O=C(c1cccs1)N1CCN(Cc2ccccn2)CC1	9%	-1	?	24	-0.5	4%[15.4 µM]	/
O=C(Nc1ccccc1-c1ccccc1)c1cnccn1	21%	-3	2%	/	1.8	-38%[inhibitor]	0.1%
Cc1ccc(S(=O)(=O)NC(C(=O)N2CCN(S(=O)(=O)c3cccc(F)c3)CC2)C(C)C)cc1 (stereo unspecified)	-2%	-14	/	-2	/	-21%	2.1%
O=c1ccn(C2CCCO2)c(=O)[nH]1 (stereo unspecified)	5%	0	/	/	/	-49%[inhibitor]	0.8%
O=C(Nc1cccc2ccccc12)C1CCN(C(=O)NCc2ccccc2)CC1	-5%	10	17%	3	-0.4	6%	-2.7%
CC1CCCCC12NC(=O)N(CC(=O)OCC(=O)NCc1ccc(F)cc1)C2=O (stereo unspecified)	12%	3	/	-6	/	-28%	-0.9%
C/C(=N\NC(=O)Cn1nc(C)c(Br)c1C)c1cccs1	12%	5	1%	6	/	8%	-17%
CCn1c(=S)[nH]c2cc(Cl)ccc21	5%	-2	-8%	?	3.3	-4%	0.3%
C/C(=N\NC(=O)c1ccn[nH]1)c1cn(C)nc1C	4%	-4	10%	-7	/	0%	/
CSc1nc2ccc(NS(=O)(=O)c3cccc(Cl)c3Cl)cc2s1	-12%	-3	?	-4	10	20%	0.2%
CCOC(=O)C1=C(O)/C(=C/c2ccc(OCC(=O)O)c(OCC)c2)SC1=Nc1ccc(C)cc1	?	-5	-3%	12	15	-51%[inhibitor]	/
Cc1cccc(-n2ccnc2SCC(=O)Nc2nccs2)c1	6%	-38	-1%	7	-2.6	4%	1.7%
O=C(c1ccco1)N1CCN=C1SCc1ccccc1F	-4%	1	3%	3	8.9	-12%	1.4%
CCc1nnc(NC(=O)CCC(=O)NCc2ccc(OC)cc2)s1	3%	-3	9%	/	4.4	9%[15.4 µM]	-0.9%
Cc1ccc(C(=O)Nc2ccc(S(=O)(=O)N3CCCC3)cc2)o1	-3%	18	12%	-13	/	-49%[inhibitor]	-0.2%
C/C(=N\N1CCN(Cc2ccccc2)CC1)c1ccco1	-2%	-5	20%	18	-8.0	-19%	0.8%
Cc1cccc(CNc2ccc(C(CC(N)=O)NC(=O)c3cccc(Br)c3)cc2[N+](=O)[O-])c1 (stereo unspecified)	5%	-12	18%	26	0.6	/	3.0%
Cc1cc(/C=N\NC(=O)CC(=O)NC2CCCCC2)c(C)n1-c1ccc(Cl)c(Cl)c1	12%	-9	1%	/	3.3	-22%	-1.3%
CC(C)(C)c1nnc2sc(SCC(O)=C(C#N)c3nc4ccccc4[nH]3)nn2c1=O	-3%	0	/	/	/	34%	/
O=C(O)CC1NC(=S)N(Cc2ccccc2)C1=O (stereo unspecified)	/	-18	/	/	/	?	-0.8%
CC(=O)Nc1ccc(S(=O)(=O)N2CCN(C(=O)c3ncoc3-c3cccc(F)c3)CC2)cc1	/	7	-1%	2	-3.6	-2%[15.4 µM]	/
CN(C)C(=O)CN1CCN(c2nc3nonc3nc2N2CCCCC2)CC1	5%	-4	3%	6	-12	?	/
OC(Cc1cccc(C=NN2CCOCC2)n1)(C(F)(F)F)C(F)(F)F	/	-9	/	/	/	-43%[inhibitor]	-3.6%
O=C(c1nnc(-c2ccc(Cl)cc2)o1)C1CCCC1	15%	-2	-4%	-11	-1.7	5%[15.4 µM]	/
CCOC(=O)c1ccc(NC(=O)CSC2=NN3CCCC(=O)N=C3S2)cc1	-5%	-15	18%	-5	-0.8	-10%	-1.4%
Cc1onc(-c2ccccc2Cl)c1C(=O)N1CCCc2ccccc21	-25%	-12	14%	-10	-1.2	1%	-2.5%
CC1CN(C(=O)c2cc3c(=O)n4ccccc4nc3s2)CC(C)O1 (stereo unspecified)	10%	8	17%	0	-1.6	13%	18µM*
Cc1oc(C(C)(C)C)cc1C(=O)NCC(=O)NCC(=O)O	7%	-17	?	8	2.2	-15%	-5.7%
O=C(NC1CCCC1)C(c1ccncc1)N(Cc1ccccc1F)C(=O)c1csnn1 (stereo unspecified)	2%	-7	1%	0	0.7	-12%	/
Cn1nc(C(=O)Nc2ccc(S(=O)(=O)Nc3ncccn3)cc2)ccc1=O	9%	0	8%	?	?	15%[15.4 µM]	/
O=C(O)CCSc1nnc(SCC(=O)NCC(F)(F)F)s1	14%	-26	11%	3	9.7	-62%[inhibitor]	-1.0%
Cc1cc(S(=O)(=O)Nc2cccnc2)c(Cl)cc1Cl	-4%	-1	2%	-4	2.9	-28%	/

Results in ClpP mod (2 entries from above):
| molecule | ClpP mod |
| --- | --- |
| CSc1ccc(CN(C)C(=O)C(Cc2ccccc2)NC(=O)c2ccccc2)cc1 (stereo unspecified) | -11% |
| O=C(O)CSc1nnc(-c2ccccc2O)n1Cc1ccccc1 | -1.6% |

Next section
SMILES	gsp antag	D2 PAM	Sfp inh	TRPV1 PAM	Menin MLL FP FL	gsp agonist	ClpP mod
Cc1ccc(/C=N/NC(=O)c2cc3c(s2)CCCC3)o1	1%	-13	/	-18	/	-1%	-12%
C[C@H](NC(=O)[C@@H]1Cc2ccccc2CN1C(=O)OC(C)(C)C)C(=O)NCC1CCCO1 (stereo partly specified)	2%	-2	11%	0	-1.0	?	-1.0%
Cc1ccc(C(=O)O)cc1N=Cc1cc(Br)cc(Br)c1O	?	-32	-26%	15	28	-9%	?
Cc1c(C(=O)CN2CCSCC2)c2ccccc2n1C	8%	-23	-8%	12	-2.7	9%	-0.9%
O=C(CSc1nc2ccccc2s1)NC(=O)NCc1ccco1	2%	-4	-29%	-5	2.5	8%	-3.5%
COC(=O)c1ccc2nc(NC(=O)CN3C(=O)CCC3=O)sc2c1	-3%	-9	28µM*	-8	-2.3	-5%	-19%
COc1ccc(C(CNC(=O)Nc2cccc(C)c2)N2CCN(C)CC2)cc1 (stereo unspecified)	15%	-31	9%	-9	/	12%	-0.6%
COc1ccc(NS(=O)(=O)c2ccc(C)c(C(=O)N3CCCCCCC3)c2)cc1	-9%	18	/	4	/	-10%	-1.1%
O=C(COC(=O)c1ccccn1)NCc1cccc(Cl)c1	-3%	-12	/	3	/	26%[15.4 µM]	/
C/C(=N/NS(=O)(=O)c1ccc(Cl)cc1)c1cccc(O)c1	-1%	2	7%	-7	-1.0	6%	-1.2%
COc1ccc(OC)c(S(=O)(=O)N/N=C(/C)c2c[nH]c3ccccc23)c1	-6%	7	21%	9	2.7	?	-1.2%
O=C(COc1cccc2ccccc12)N1CCN(c2ccccn2)CC1	-10%	-8	-7%	?	0.1	-1%	?
CCOc1ccc(C(=O)NC(C)(C)CC)cc1	7%	-5	12%	-2	-1.1	-25%	/
CCC(NC(=O)CCC(=O)N1CCN(S(=O)(=O)c2ccc(C)cc2)CC1)c1ccc(C)cc1 (stereo unspecified)	-14%	0	/	6	/	-6%	-2.7%
COc1ccc(N2C3=[N+](CC2(C)O)c2ccccc2CC3)cc1 (stereo unspecified)	7%	-18	0%	-1	-0.2	-47%[inhibitor]	-0.2%
c1ccc(CSc2nnc(Cc3ccccc3)o2)cc1	-1%	-4	?	29	0.2	3%[15.4 µM]	-6.2%
O=C1[C@H]2[C@@H](c3ccc(F)cc3)N3C(=O)N(c4ccccc4)C(=O)[C@@]3(Cc3ccccc3)[C@H]2C(=O)N1C1CCCCC1	-5%	-27	/	-23	/	/	1.7%
COC(=O)C(Cc1ccc(OC(=O)c2ccccc2C)cc1)N1Cc2ccccc2C1=O (stereo unspecified)	?	-8	0%	?	-1.8	?	1.0%
Cc1ccc(Cn2nnc3c(=O)n(CC(=O)c4ccccc4)cnc32)cc1	0%	-5	21%	-12	-0.1	-14%	-0.5%
CC1(C)CC(=O)C=C(Nc2ccccn2)C1	6%	-3	-6%	-7	-1.0	20%	0.1%
Cc1cc(CN(C)C(=O)CC2C(=O)NCCN2Cc2c(F)cccc2Cl)n[nH]1 (stereo unspecified)	3%	-8	50µM*	17	-8.9	0%	/
C=C(C)C1CC=C(C)/C(=N/NC(=O)CCCNc2cccc(C)c2)C1 (stereo unspecified)	-10%	8	16%	-2	1.5	-7%[15.4 µM]	/
COc1cccc(CC(=O)N2CCC(CCC(=O)Nc3cccc(OC)c3)CC2)c1	-20%	-8	11%	-3	/	22%	-1.1%
O=C(CSc1ccccc1F)NC(=O)c1ccc(Cl)cc1	3%	0	/	/	/	-1%[15.4 µM]	-1.1%
COc1cc(OC)cc(-c2nc3ccccc3c(=O)n2NC(=O)c2cccnc2Cl)c1	-4%	-1	13%	10	-1.4	-112%[inhibitor]	0.5%
O=C(Nc1ccccc1)c1cccc(S(=O)(=O)Nc2ccccn2)c1	-5%	-1	9%	9	-1.8	-38%[inhibitor]	-16%
Cc1nc2c(C(=O)Nc3ccc(N4CCCC(O)C4)cc3)snc2c(=O)[nH]1 (stereo unspecified)	?	-6	10%	12	0.3	-17%	-0.5%
Cc1noc(C)c1-c1nc(CS(=O)(=O)c2ccc(Cl)cc2)no1	0%	-7	8%	-1	1.2	22%[15.4 µM]	/
